PrP UTR inh = suppresses PrP 5' UTR mRNA reporter expression | AID 488862 | 0.35% of 340,000 active | inhibition, % (test concentration not listed) | cell-based PrP 5' UTR mRNA reporter, plate reader;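 active = every replicate at 50% or more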;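 note: 0 = median of the neutral control wells; tested in H4 reporter cells; numbers are from one replicate; inactives centre near -14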
BJeLR viability = kills HRASV12-expressing BJeLR cells; BJeLR (HRASV12) viability, CellTiter-Glo ATP luminescence, 48 h; reference of the scale not given here; inhibition, % (no concentration beside the values); 0.17% of 300,000 active;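 active = replicate mean above 50%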;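 note: 50 nL library stock added to about 25 µL; numbers are from one replicate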
Mtb hypoxia inh = Mtb hypoxia fluorescent reporter inhibition | M. tuberculosis hypoxia-regulated fluorescent reporter, fluorescence | fluorescence inhibition, % (concentration not given with the values) | 0.1% of 300,000 active;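 active = 35 to 45% if threefold the growth effect, above 45% if 1.5-fold the growth effect; inactive = the rest, general growth blockers included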;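 note: wells of about 50 µL received 100 nL stock; 0% = vehicle wells and 100% = reference inhibitor wells; whole bacteria with a GFP reporter of the hypoxia response; strong numbers were not always called active; many hits fall short of the cut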
Sa ugtP lethal = growth inhibition of S. aureus ugtP deletion strain. 0.54% of 330,000 active. S. aureus RN4220 ugtP deletion, OD600 growth, 16 h; some inactives read as strong as hits. growth inhibition, % (test concentration not listed);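 active = z-score under -3 and OD600 up to 0.15 on both plates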;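 note: plate controls were untreated wells for no effect and antibiotic for full effect; wells of about 80 µL received 100 nL stock; the first replicate is given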
Sa RN4220 lethal = kills Staphylococcus aureus RN4220; S. aureus RN4220 growth, OD600, 16 h; inhibition, % (no concentration beside the values); 0.33% of 330,000 active; AID 1259311;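 active = z-score of -3 or lower and OD600 up to 0.18 on both plates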;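 note: plate controls were untreated cells for no effect and reference antibiotic for full effect; stock transfer was 100 nL into about 80 µL; one replicate is shown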
Bead autofluor = counter-screen for toxin protease inhibitors: compound fluorescence; 3.1% of 360,000 active; fluorescence intensity (concentration not given with the values); compound autofluorescence counterscreen, microsphere flow cytometry; hits give high values;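 active = at least 3 SD above the mean of all compounds, about 16000 in these data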;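 note: 100 nL of 1 mM stock went into each well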
Mtb hypoxia inh growth = second read-out of Mtb hypoxia inh, no call of its own (marks repeat the call); growth inhibition, %; measured here: M. tuberculosis growth (absorbance);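 0% = vehicle and 100% = reference antibiotic; read after six days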
The depositor's hits bear a star; · = no result given. No enrichment for hits. About 4% of those tested had a hit in this group.

SMILES | PrP UTR inh | BJeLR viability | Mtb hypoxia inh | Mtb hypoxia inh growth | Sa ugtP lethal | Sa RN4220 lethal | Bead autofluor
COCC1CCCCN1Cc1cn(-c2ccccc2)nc1-c1ccc2c(c1)OCO2 (centres undefined) | 1.2 | 7.1 | -13.7 | -1.5 | 3.8 | 0.2 | 4220
CCOC(=O)C1=C(C)Nc2ccccc2N/C1=N\S(=O)(=O)c1ccc(Cl)cc1 | -1.2 | · | 9.1 | 2.0 | -5.7 | 7.7 | ·
Cc1nc2cc(-c3ccc(F)cc3)[nH]n2c(=O)c1C | -95.8 | 4.7 | 8.4 | 3.0 | 14.3 | 3.3 | 3599
Cc1ccc(SCc2cc(=O)[nH]c(/N=C(\N)Nc3ccccc3Sc3ccccc3)n2)cc1 | -32.2 | -2.3 | · | · | · | · | 1912
C(=N\n1cnnc1)/c1ccc2c(c1)OCO2 | -13.0 | 3.6 | · | · | · | · | 24727*
CCn1c(=O)c2c(n3c(=S)[nH]nc13)-c1ccccc1CC21CCCCC1 | -20.1 | 0.1 | 4.1 | 3.9 | 8.0 | 2.1 | 4193
O=C1COc2ccc(C(=O)COC(=O)Cc3ccc(Cl)cc3)cc2N1 | -13.9 | -18.5 | -14.8 | 5.7 | 3.2 | -0.5 | 4601
CCOc1ccc(NS(=O)(=O)c2cc(NC(=O)C3CC3)ccc2C)cc1Br | -3.0 | · | 6.1 | 7.0 | 11.1 | -5.0 | 2736
Cc1ccc(S(=O)(=O)NC2=NCN(C(C)C)CN2)cc1 | -15.1 | -7.9 | 7.8 | 2.0 | -0.7 | -0.4 | 3906
CSc1nc(Cl)cc(N2CCOCC2)n1 | -24.3 | -4.1 | 11.0 | 11.9 | -2.2 | 3.6 | 4501
CC(=O)c1sc(NC(=O)c2cccc3ccccc23)nc1C | -25.6 | 5.6 | -2.5 | 8.5 | -2.8 | 1.2 | 2172
c1cncc(C2CCCCN2)c1 (centres undefined) | -10.7 | 4.7 | · | · | -5.8 | 3.2 | 5304
COCCCNC(=O)c1cc(C)nn1-c1ccccc1 | -11.5 | -3.1 | 10.3 | 1.5 | 1.9 | 3.9 | 4473
O=C(CSc1nc2ccccc2[nH]1)Nc1ccc(N2CCOCC2)cc1 | 3.4 | -2.4 | 4.5 | -1.9 | 1.9 | 3.4 | 5337
COc1ccc(-c2cnn3c4c(c(C)nc23)CCN4C(C)C)cc1OC | -35.7 | -7.1 | -2.8 | 2.0 | -5.2 | 1.1 | 8831
Cc1sc2nc(C(C)Sc3n[nH]c(N)n3)[nH]c(=O)c2c1C (centres undefined) | · | -6.3 | -4.1 | 3.9 | 2.5 | -0.8 | ·
CCn1c(SCC(=O)NC2CCCC2)nnc1-c1cccnc1 | -17.9 | -12.4 | -3.1 | -3.8 | 1.3 | 3.1 | 4751
CSc1nnc([C@@H](N)Cc2ccccc2)o1 | -2.7 | 2.8 | 0.9 | 4.8 | 4.5 | 4.0 | 15553
CCn1c(SCC(=O)N2CCC(C(N)=O)(N3CCCCC3)CC2)nnc1-c1ccccc1 | -12.0 | 1.4 | 6.0 | 10.3 | 3.3 | 3.6 | 3144
COc1ccc(CC(=O)NCc2nnc(SCc3ccc([N+](=O)[O-])cc3)n2C)cc1 | -22.4 | 13.9 | 0.2 | -0.3 | 14.1 | -1.2 | 5044
O=C1CC(Nc2ccc(N3CCOCC3)cc2)C(=O)N1C1CCCCC1 (centres undefined) | -14.7 | 2.1 | · | · | 2.9 | 0.8 | 2434
O=C(NCCc1ccccc1)C1CCC(CNc2c(N3CCCCC3)c(=O)c2=O)CC1 (centres undefined) | -19.1 | -3.4 | -4.9 | 16.1 | 11.3 | 4.8 | 5659
COc1ccc(C(=O)C2CCCN(Cc3ccc4nonc4c3)C2)cc1F (centres undefined) | -21.6 | -12.1 | 14.4 | 4.8 | 0.1 | 2.3 | 3221
CC1CCCC(C)N1C(=O)COC(=O)c1cccnc1Cl (centres undefined) | -27.1 | · | 33.8* | 76.7* | 0.3 | 4.2 | 4273
CC1CN(C(=O)CCC(=O)NCc2ccc(Cl)cc2)c2ccccc2S1 (centres undefined) | 62.9* | -5.1 | · | · | 7.9 | 9.5 | 4415
SMILES | PrP UTR inh | BJeLR viability | Mtb hypoxia inh | Mtb hypoxia inh growth | Sa ugtP lethal | Sa RN4220 lethal | Bead autofluor
Cc1ccccc1NC(=O)c1ccccc1NS(=O)(=O)c1cccc2cccnc12 | -23.4 | -3.7 | -6.2 | 3.9 | -0.4 | -0.9 | 2820
O=C(C(=NO)n1cncn1)c1ccc(Cl)cc1Cl | · | · | -16.5 | -8.8 | 18.1 | 10.1 | ·
O=C(C(=O)c1ccc(O)c(O)c1)c1ccc(O)c(O)c1 | -3.4 | · | 17.8 | 11.7 | -14.4 | 13.5 | 4120
CN(CC(=O)NCc1ccccn1)S(=O)(=O)c1ccc(Br)cc1 | -22.4 | 10.2 | 1.2 | 12.5 | -0.4 | -0.1 | 3382
Cc1ccc(NC(=O)CN(C)C(=O)C(Sc2ccccc2)c2ccccc2)cc1 (centres undefined) | -22.0 | · | 7.7 | 2.8 | -2.9 | -7.8 | 3684
Cc1c(C(=O)NCc2ccccn2)oc2ccc(Br)cc12 | -33.0 | 0.1 | 11.4 | 14.7 | 3.0 | 4.0 | 5196
CCc1ccc(/C=N\n2cnnc2)cc1 | -49.0 | -7.2 | · | · | · | · | 3657
Cc1ccc2c(c1)c1c(n2CC(O)Cn2c(C)nc3ccccc32)C(=NO)CCC1 (centres undefined) | · | · | -3.5 | 6.1 | -50.1 | 30.9 | ·
CCOCCCNS(=O)(=O)c1ccc(-n2cnnn2)c(OC)c1 | -20.0 | 3.0 | -11.0 | -3.4 | 0.7 | 2.1 | 9328
Cc1ccc2[nH]c(-c3cccc(N)c3)cc2c1 | -87.8 | 18.1 | 7.2 | 0.9 | -0.6 | -3.3 | 3926
CCCCN(C(=O)Cc1ccc(S(=O)(=O)N2CCOCC2)s1)c1c(N)n(CCCC)c(=O)[nH]c1=O | -13.8 | 4.2 | 4.3 | 0.0 | 1.0 | -0.5 | ·
CNC(=S)N(CCc1c(C)[nH]c2ccc(Cl)cc12)Cc1cccs1 | · | -8.0 | 10.8 | -4.9 | 23.0 | 64.0 | ·
Cc1c(NC(=S)SCc2ccccc2)c(=O)n(-c2ccccc2)n1C | -18.8 | -4.8 | 12.2 | 6.5 | 8.7 | 4.0 | 3941
COc1cccc(CN(C)Cc2nc(C3CC3)no2)c1 | -15.5 | -1.2 | 7.5 | 14.7 | -1.7 | 7.5 | 3345
CON=Cc1ccc(Sc2ccc(C)cc2)c([N+](=O)[O-])c1 | · | · | 16.4 | -18.3 | 9.6 | -19.0 | ·
Cc1ccc2oc(C(=O)N3CCN(c4cccc(C)n4)CC3)c(C)c2c1 | -58.1 | 8.6 | 6.5 | 5.1 | 17.0 | -4.2 | 3565
Cc1ccc(NC(=O)C2OCCc3ccccc32)cc1Cl (centres undefined) | -22.6 | 5.1 | 9.5 | 7.6 | 0.9 | 14.8 | 3808
CC1CC(=NNC(=O)c2ccc(CSc3nc4ccccc4[nH]3)cc2)CC(C)(C)C1 (centres undefined) | · | · | -2.8 | 0.6 | -0.7 | 2.8 | ·
Fc1ccccc1NC(=S)NCCc1ccccc1 | -15.5 | -2.6 | · | · | -0.5 | 2.3 | 4626
O=C(CCCOc1ccc(Cl)cc1Cl)N1CCC2(CC1)OCCO2 | -31.1 | -4.0 | -1.0 | -1.3 | -8.8 | -0.9 | 10158
CCN(CC(=O)Nc1ccc2c(c1)OCCO2)C(=O)c1cccc(OCC(C)C)c1 | -27.8 | -5.5 | 0.2 | -2.1 | 3.3 | 4.4 | 4483
Cc1cc(C(=O)COc2cccnc2[N+](=O)[O-])c(C)n1-c1ccccc1 | 58.4* | 18.6 | · | · | · | · | 2669
O=C(c1ccc(Cl)cc1)N(Cc1ccc(Br)cc1)N1C(=O)CCC1=O | -6.4 | 2.8 | 7.1 | 13.1 | 0.9 | 11.5 | 4462
COC(=O)C1=C(c2ccc(Cl)c(C(F)(F)F)c2)CC2CCC1N2C(=O)NCCO (centres undefined) | · | · | 0.6 | 2.2 | -5.9 | 3.0 | ·
CCCCSc1nc2c(=O)[nH][nH]c(=O)c2n1Cc1ccccc1 | -18.9 | 3.2 | 1.6 | -3.8 | 0.3 | -3.0 | 4517

Record cards (already shown). Order of screens: PrP UTR inh | BJeLR viability | Mtb hypoxia inh | Mtb hypoxia inh growth | Sa ugtP lethal | Sa RN4220 lethal | Bead autofluor
`CCn1c(SCC(=O)NC2CCCC2)nnc1-c1cccnc1` in the list: -17.9 | -12.4 | -3.1 | -3.8 | 1.3 | 3.1 | 4751
`Cc1ccccc1NC(=O)c1ccccc1NS(=O)(=O)c1cccc2cccnc12` in the list: -23.4 | -3.7 | -6.2 | 3.9 | -0.4 | -0.9 | 2820

(listing goes on)
SMILES | PrP UTR inh | BJeLR viability | Mtb hypoxia inh | Mtb hypoxia inh growth | Sa ugtP lethal | Sa RN4220 lethal | Bead autofluor
CCOC(=O)N1CCN(S(=O)(=O)c2ccc(C)cc2)C1c1ccc(OC)cc1 (centres undefined) | -15.4 | -8.6 | 4.1 | -4.0 | 8.2 | 2.5 | 3917
COc1cc(OC)c(C2C(C(=O)O)c3ccccc3C(=O)N2C)cc1OC (centres undefined) | -4.3 | 1.8 | · | · | 4.1 | 1.1 | 4070
CCOC(=O)c1[nH]c(C)c(C(=O)OCC(=O)NC(C)c2ccc(F)cc2)c1C (centres undefined) | -34.1 | · | -1.2 | -4.5 | -2.7 | 3.3 | ·
COc1ccc(N2CCC(CNC(=O)Nc3ccc(C)c(C)c3)C2)cc1 (centres undefined) | -5.2 | 5.0 | 3.9 | 0.0 | 0.9 | 2.1 | 3790
CN1CCN(c2nc(NCCOC34CC5CC(CC(C5)C3)C4)nc(OCC(F)(F)F)n2)CC1 | 1.0 | 1.4 | 3.3 | 14.8 | 23.5 | 2.1 | 2295
CCc1ccc(N2CC(C(=O)N3CCCC3)CC2=O)cc1 (centres undefined) | -17.1 | -7.0 | -3.0 | -3.8 | 2.9 | 2.5 | 3941
COc1cc(OC)c(OC)cc1C=NNC(=S)NCCN1CCOCC1 | · | · | 2.3 | 10.3 | 9.5 | 3.9 | ·
NC1=NC(=O)C2(COC(c3cccnc3)OC2)S1 (centres undefined) | -5.5 | -6.9 | 12.3 | 0.6 | 4.3 | 3.3 | 3796
CC(=NNC(=O)Cc1cccn1C)c1ccc([N+](=O)[O-])cc1 | · | · | 8.9 | 7.3 | 2.8 | 6.4 | ·
Cc1cccc(CN2CCOCCS2(=O)=O)c1 | -18.7 | -4.5 | 11.2 | 10.0 | 2.6 | 6.1 | 3805
COc1ccc(Cn2c(C3CC3)nc3ccc(NC(=O)C4CC4)cc3c2=O)cc1 | -104.4 | 3.2 | · | · | 0.7 | -2.4 | 4615
CCc1nn(CC(=O)N(C)C2CCCCC2)c(=O)c2cc3cc(C)ccc3n12 | -0.8 | 1.6 | 12.3 | 9.9 | -8.2 | 0.4 | 5016
NS(=O)(=O)c1cccc(NC(=O)COC(=O)C2(c3cccc(F)c3)CCCC2)c1 | -3.5 | -2.8 | 5.3 | 11.8 | 49.7 | 4.2 | 1984
COc1cc(NC(=O)CCNC(=O)Cn2cnc3sc4c(c3c2=O)CCCC4)cc(OC)c1OC | -17.2 | -10.3 | 0.2 | -3.3 | 1.9 | 0.5 | 5084
COc1ccc(OC)c(Nc2nc(-c3ccccc3O)nc3ccccc23)c1 | -12.7 | -3.4 | 0.1 | 4.6 | -4.4 | -8.7 | 4208
c1ccc(-n2nnnc2SCc2cccc3nsnc23)cc1 | -29.2 | -9.7 | 6.1 | 11.5 | 10.1 | 6.0 | 3003
C/C(=N\Nc1ccc(C(F)(F)F)cc1[N+](=O)[O-])C(C)C | -20.9 | -2.8 | · | · | · | · | 10542
CCCCC(=O)Nc1ccc(NC(=O)c2cc(OC)c(OC)c(OC)c2)cn1 | -3.0 | 3.0 | 7.3 | 11.4 | 20.3 | -7.8 | 4212

A second format for some results above.
molecule	PrP UTR inh	BJeLR viability	Mtb hypoxia inh	Mtb hypoxia inh growth	Sa ugtP lethal	Sa RN4220 lethal	Bead autofluor
NS(=O)(=O)c1cccc(NC(=O)COC(=O)C2(c3cccc(F)c3)CCCC2)c1	-3.5	-2.8	5.3	11.8	49.7	4.2	1984
COc1ccc(OC)c(Nc2nc(-c3ccccc3O)nc3ccccc23)c1	-12.7	-3.4	0.1	4.6	-4.4	-8.7	4208
CCc1ccc(/C=N\n2cnnc2)cc1	-49.0	-7.2	·	·	·	·	3657
CCCCSc1nc2c(=O)[nH][nH]c(=O)c2n1Cc1ccccc1	-18.9	3.2	1.6	-3.8	0.3	-3.0	4517
